LASV entry inh – blocks Lassa virus binding to or entry into cells; Lassa virus pseudotype entry inhibition, cell reporter; control for the full effect not named in the record; AID 540256; Potency, µM (series often up to 37.9 µM), for the others: at the highest dose activity change, negative = inhibition, actives largely listed as inhibitors; 1.2% of 300,000 active; active means well fitted inhibition curve with a large enough effect; inconclusive means small, poorly fitted or top-dose-only effect, or effect the other way; inactive means flat fitted curve, though single readings scatter; tested in HEK293 cells; note: % is set by controls: 0 for no effect and ±100 for the full control effect; nearly all actives have a fitted effect of over 50% in size; luciferase read-out
RE007 growth inh – less growth of the S. pombe RE007 Vpr strain; AID 651644; 0.21% of 360,000 active; S. pombe RE007 Vpr strain, BacTiter-Glo ATP luminescence, 24 h; control for the full effect not named in the record; Potency, µM (highest dose often 92.2 µM), for the others: at the top dose activity change, negative = less growth; active = well fitted falling curve with a large enough effect; inconclusive = small, poorly fitted or top-dose-only effect; inactive = no such curve, though single readings can be large or run the other way;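 note: % is set by controls: 0 for no effect and ±100 for the full control effect; nearly all actives have a fitted effect of over 50% in size; the assay follows cell death caused by Vpr and the record does not say whether a fall means rescue or toxicity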
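Fission yeast strain RE007, carrying one chromosomally integrated HIV-1 vpr copy, was seeded at OD 0.01 in PMG+AL medium with 23 nL pinned compound. After 24 h at 30 °C and 99% humidity, viability was read by BacTiter-Glo luminescence.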
Cruzain inh Det – blocks cruzain activity in presence of Triton detergent; AID 1478; Potency, µM, for the others: max response, negative = inhibition, actives largely listed as inhibitors; 0.43% of 200,000 active; purified cruzain, Z-FR-AMC fluorescence, 0.01% Triton; active = well fitted curve in the direction sought with a large enough effect; inconclusive = small, poorly fitted or top-dose-only effect, or another doubt; inactive = no such curve, though single readings can be large; an effect the other way counts as inactive or inconclusive;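 note: plate controls were neutral wells for no effect and buffer without enzyme for full effect; nearly all actives have a fitted effect of over 40% in size; top concentration of the series not given in the record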
Target sequence (P25779 123-467 limits assumed): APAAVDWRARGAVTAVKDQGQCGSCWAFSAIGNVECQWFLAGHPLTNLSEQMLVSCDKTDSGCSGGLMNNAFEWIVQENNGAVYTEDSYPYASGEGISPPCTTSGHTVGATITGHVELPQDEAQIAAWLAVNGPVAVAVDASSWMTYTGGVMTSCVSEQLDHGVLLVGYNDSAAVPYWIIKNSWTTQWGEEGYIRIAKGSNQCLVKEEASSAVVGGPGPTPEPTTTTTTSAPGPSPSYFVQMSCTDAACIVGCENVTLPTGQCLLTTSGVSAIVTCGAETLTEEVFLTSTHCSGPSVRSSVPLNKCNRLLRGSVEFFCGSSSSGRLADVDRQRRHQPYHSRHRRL
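Purified cruzain (1.5 nM final) was preincubated with compounds for 15 min at room temperature in 100 mM sodium acetate pH 5.5, 5 mM DTT, 0.01% Triton X-100. Reaction started with 2 uM Z-FR-AMC; AMC fluorescence change over 60 s gave activity.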
SARS PLP yeast – SARS-CoV PLP inhibition in yeast | Potency, µM (top dose mostly 32.9 µM), for inactives: top-dose activity, positive = growth rescue | 0.19% of 330,000 active | S. cerevisiae expressing SARS-CoV PLpro, growth rescue; control for the full effect not named in the record; note: 0% is about no effect; nearly all actives have a fitted effect of over 55% in size; growth read by luminescence after 48 h
Cruzain noTriton – blocks cruzain activity in detergent-free assay | Potency, µM, for inactives: max response, negative = inhibition, hits mostly inhibitors | purified cruzain, Z-FR-AMC fluorescence, no detergent | 2.3% of 200,000 active | AID 1476 | P25779; active = well fitted curve in the direction sought with a large enough effect; inconclusive = small, poorly fitted or top-dose-only effect, or another doubt; inactive = no such curve, though single readings can be large; an effect the other way counts as inactive or inconclusive;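 note: plate controls were enzyme without inhibitor for no effect and buffer without enzyme for full effect; nearly all actives have a fitted effect of over 40% in size; top concentration of the series not given in the record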
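Detergent-free condition (0.00005% Triton X-100) in acetate buffer pH 5.5 with DTT. 1.5 nM enzyme and compound were pre-mixed 15 min, then 2 uM Z-FR-AMC substrate added; reaction progress from fluorescence change between first and third reads (60 s).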
2A StopGo – lowers the luciferase signal of an FMDV 2A StopGo reporter; human cells with a luciferase reporter of 2A StopGo recoding; control for the full effect not named in the record; Potency, µM (top dose mostly 57.9 µM), without a hit: at the top dose signal change, negative = less light; 1.2% of 410,000 active; active = well fitted falling curve with a large enough effect; inconclusive = small, poorly fitted or top-dose-only effect; inactive = no such curve, though single readings can be large or run the other way; tested in HEK293T cells; note: % is set by controls: 0 for no effect and ±100 for the full control effect; nearly all actives have a fitted effect of over 45% in size; luciferase light after 4 h
NS1 function inh – inhibitors of influenza NS1 protein function; S. cerevisiae slowed by influenza A NS1, growth recovery by OD600; Potency, µM (titrated, usually from 46.1 µM), for the others: top-dose activity, positive = more growth; 0.4% of 270,000 active; AID 2326; note: actives are rising curves; nearly all actives have a fitted effect of over 50% in size
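S. cerevisiae expressing influenza A NS1, grown in glucose, washed, then diluted 1:100 into pH 6.0 -URA galactose medium with 23 nl compound. Growth recovery read as OD600; NS1-free strain serves as control.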
Marburg entry inh – Marburg virus entry inhibition; AID 540276; 1.8% of 300,000 active; Potency, µM (highest dose often 37.8 µM), for inactives: at the top dose activity change, negative = inhibition, most hits filed as inhibitors; Marburg virus pseudotyped entry inhibition, cell reporter; control for the full effect not named in the record; about a third of the inactives were read at about 46 µM; active = well fitted inhibition curve with a large enough effect; inconclusive = small, poorly fitted or top-dose-only effect, or effect the other way; inactive = flat fitted curve, though single readings scatter; tested in HEK293 cells; about a fifth of its hits are not listed in these tables; note: % is set by controls: 0 for no effect and ±100 for the full control effect; luciferase read-out
Numbers without * were called inactive; ? = inconclusive; · = not tested or not shown; [ ] = remark or other dose. Unless noted, calls come from the whole dose curve; as a rule, active means well fitted rising curve with a large enough effect; inconclusive means small, poorly fitted or top-dose-only effect; inactive means no such curve, though single readings can be large or run the other way. Potency is the fitted concentration of half-maximal effect. Random draw from the library; overall some 4.5% were active at least once.

Order of results: LASV entry inh	RE007 growth inh	Cruzain inh Det	SARS PLP yeast	Cruzain noTriton	2A StopGo	NS1 function inh	Marburg entry inh
> O=C(C1=C[C@H](c2ccc3c(c2)OCO3)C[C@H](OCCCCO)O1)N1CCN(Cc2ccccc2)CC1
 : ·	1.9%	·	0.9%	·	-16.1%	-6.0%	·
> Cc1cccc(NC(=O)c2nc[nH]c2C(=O)N[C@@H](CC(C)C)C(=O)OC(C)(C)C)c1
 : ·	1.7%	·	0.6%	·	0.0%	5.5%	·
> COc1ccccc1OCc1ccc(C(=O)Nc2cc(OC)c(OC)c(OC)c2)o1
 : ·	-9.0%	·	-4.8%	·	-24.8%	-27.5%	·
> O=C(/C=C/c1c(F)cccc1Cl)Nc1ccncc1
 : 1.0%	-19.1%	-9.8%	-38.8%	-18.3%	15.8%	-28.3%	-26.8%
> Cc1nn(Cc2ccc(Cl)c(Cl)c2)c(C)c1NC(=O)c1cc(C2CC2)on1
 : ·	1.1%	-6.4%	-15.6%	2.0%	-27.4%	-116.1%	·
> Cc1cccc(N2CCN(CCCNC(=O)c3ccc(NC(=O)C4=CSCCO4)cc3)CC2C)c1 (configuration not stated)
 : ?	-13.0%	·	0.0%	·	?	1.8%	?
> COc1ccc(OCCn2c(=O)sc3ccccc32)cc1
 : 13.4%	12.4%	·	-1.7%	·	52.5%[activator]	-10.9%	?
> O=C1NC(=S)NC(=O)C1=Cc1c(Cl)cccc1Cl
 : -0.1%[46.1 µM]	-9.6%	·	·	·	20µM*	·	11.3%[46.1 µM]
> CCOC(=O)c1cnn(-c2ccccc2)c1NC(=O)CN1CCCCC1
 : 5.6%[46.1 µM]	4.4%	·	1.5%	·	-17.8%	1.3%	?
> CC(CCn1cccn1)NC(=O)c1cc(COc2ccc(F)cc2Cl)on1 (configuration not stated)
 : -8.1%[46.1 µM]	-20.4%	·	-0.6%	·	-12.8%	-1.9%	5.3%[46.1 µM]
> Cc1ccccc1C(=O)Nc1nncs1
 : 18.3%	-4.7%	7.8%	0.3%	3.2%	19.4%	-1.2%	19.1%
> N/C(=N\OC(=O)Oc1ccccc1)c1ccc(Cl)cc1
 : -29.6%	-2.1%	1.5%	-1.3%	-5.7%	15.5%	10.9%	-3.3%[46.1 µM]
> O=C(O)CC1(CC(=O)Nc2ccc(F)c(Cl)c2)CCCCC1
 : ?	-17.3%	·	-1.3%	·	-10.3%	4.4%	-0.2%[46.1 µM]
> COC(=O)C(Cc1ccccc1)NS(=O)(=O)c1ccc(F)cc1Br (configuration not stated)
 : ·	8.4%	·	-6.7%	·	63.1%[activator]	-27.6%	·
> Cc1ccc(Oc2cnn(-c3ccccc3)c(=O)c2Br)cc1
 : ?	3.6%	·	0.4%	·	-3.5%	-8.8%	1.3%[46.1 µM]
> Cc1c(C(=O)N2CCCCCC2)oc2ccccc12
 : 1.9%	-5.6%	-0.3%	-4.0%	-9.2%	17.4%	-65.5%	-1.6%
> Cc1ccc([N+](=O)[O-])cc1NC(=O)CSc1nncc2ccccc12
 : ·	-7.6%	·	7.2%	·	?	3.1%	·
> O=C1Cc2cc(NS(=O)(=O)c3ccc(F)cc3)cc3c2N1CCC3
 : 1.2%	-6.7%	·	2.2%	·	-5.4%	·	7.7%
> O=C(O)CN(CCc1ccccc1)S(=O)(=O)c1ccccc1
 : ·	10.4%	·	1.2%	·	13.8%	3.1%	·
> c1ccc2sc(NC3=NCN(CC4CCCO4)CN3)nc2c1 (configuration not stated)
 : ?	-8.2%	·	1.6%	·	39.5%[activator]	·	3.7%[46.1 µM]
> Cc1c(C(=O)C(=O)N2CCN(C)CC2)c2ccccc2n1C
 : 14.6%	5.0%	·	0.1%	·	-0.6%	·	10.8%
> CN(C)S(=O)(=O)c1ccc(NC=C(C#N)C#N)cc1
 : ·	-2.5%	·	0.5%	·	-18.7%	5.2%	·
> COc1ccccc1C(=O)NC(=O)COC(=O)c1nccnc1N
 : 1.5%	-1.3%	·	1.4%	·	14.6%	·	20.8%
> Cc1cccc(NC(=O)C2CCCN2C(=O)OCC(C)C)c1 (configuration not stated)
 : ?	2.4%	3.6%	-2.0%	1.2%	-9.9%	-6.1%	?
> O=C(NCCc1ccccc1)c1nc(CS(=O)(=O)c2ccc(Cl)cc2)no1
 : ·	16.9%	·	25.8%	·	-15.2%	-9.9%	·
> C=CCn1c(SCC(N)=O)nnc1-c1cnccn1
 : 18.2%[46.1 µM]	-6.2%	·	-1.9%	·	-3.2%	4.8%	?
> Cc1ccc(C(=O)N2CCc3cc(CNC(=O)COc4ccccc4)ccc32)cc1
 : -5.9%[46.1 µM]	·	-3.4%	·	-5.7%	-22.0%	·	·
> Cc1nn2c(C)c(C(=O)Nc3ccccc3)cnc2c1C#N
 : -0.5%	6.6%	4.5%	-1.4%	1.0%	·	-0.3%	-21.7%
> COc1cc(CC(=O)OCC(=O)NC2CC2)cc(OC)c1OC
 : 2.1%	-14.1%	·	6.5%	·	4.6%	·	21.5%[46.1 µM]
> O=[N+]([O-])c1ccc(N2CCC(O)CC2)nc1
 : -25.6%[46.1 µM]	9.0%	-3.7%	-15.1%	-3.7%	5.0%	11.7%	?

Complete entries, looked up by structure. Values in the order: LASV entry inh	RE007 growth inh	Cruzain inh Det	SARS PLP yeast	Cruzain noTriton	2A StopGo	NS1 function inh	Marburg entry inh
Cc1c(C(=O)N2CCCCCC2)oc2ccccc12 is listed as 1.9%	-5.6%	-0.3%	-4.0%	-9.2%	17.4%	-65.5%	-1.6%
O=[N+]([O-])c1ccc(N2CCC(O)CC2)nc1 is listed as -25.6%[46.1 µM]	9.0%	-3.7%	-15.1%	-3.7%	5.0%	11.7%	?

Following part
Order of results: LASV entry inh	RE007 growth inh	Cruzain inh Det	SARS PLP yeast	Cruzain noTriton	2A StopGo	NS1 function inh	Marburg entry inh
> CCN(CC)S(=O)(=O)c1ccc2c(c1)N(CC(=O)N1CCN(c3ccc(Cl)cc3)CC1)C(=O)CO2
 : 14.9%[46.1 µM]	·	-3.7%	·	-7.3%	-21.4%	·	·
> CCOC(=O)N1CCC(Nc2ncnc3c2cnn3-c2ccc(Cl)cc2)CC1
 : 12.5%	-14.2%	5.6%	0.3%	0.5%	27.7%	-3.8%	?
> Cn1c(=O)c2c(nc3n(-c4ccc(O)cc4)c(-c4ccc(Br)cc4)cn23)n(C)c1=O
 : -3.8%[46.1 µM]	·	4.3%	·	-3.4%	-28.4%	·	-3.6%[46.1 µM]
> COCCOC(=O)c1sc(=S)n(CCOC)c1N
 : ?	6.8%	-18.9%	-16.8%	-16.9%	9.8%	1.1%	9.4%
> CCOC(=O)C1CCN(Cc2ccc(OCc3ccccc3)c(OC)c2)CC1
 : 12.7%[46.1 µM]	3.7%	·	25.8%	·	-7.6%	-9.9%	-2.1%[46.1 µM]
> COc1ccc(CCNC(=O)c2cc(-c3ccccc3)nc3ccccc23)cc1OC
 : ?	·	-6.7%	·	?	-21.9%	·	?
> O=C1CN(C(=O)c2ccccc2)c2ccccc2N1
 : -12.3%	-1.0%	-0.9%	3.3%	3.5%	4.6%	-1.6%	1.0%
> COc1ccccc1CN1CC(C(=O)NCc2nccn2C)CCC1=O (configuration not stated)
 : ·	3.7%	·	-6.9%	·	-1.9%	-0.2%	·
> CC(CCc1ccccc1)NC(=O)C1CCN(S(=O)(=O)N2CCCCC2)CC1 (configuration not stated)
 : -0.1%	5.4%	2.9%	2.6%	1.0%	·	1.7%	-14.8%
> OC(CNCCc1ccc(C(F)(F)F)cc1)COc1ccc2ccccc2c1 (configuration not stated)
 : 16.4µM*	?	-3.4%	-23.3%	2.7%	-21.8%	-48.3%	?
> N=c1oc2ccc(Cl)cc2cc1C(=O)Nc1ccc(F)cc1
 : 4.0%	-10.5%	·	2.2%	·	58.5%[activator]	4.7%	?
> C[C@H](NC(=O)c1ccc(C(C)(C)C)cc1)C(=O)N1CCC2(CC1)NCCc1[nH]cnc12
 : 1.7%[46.1 µM]	0.9%	·	-1.9%	·	-17.2%	-9.8%	1.0%[46.1 µM]
> COC(=O)c1cccc(Cn2nnc3sc4c(c3c2=O)CCC(C(C)(C)C)C4)c1 (configuration not stated)
 : -0.3%[46.1 µM]	·	-0.8%	·	2.9%	-20.5%	·	16.7%[46.1 µM]
> COc1ccc(C(=O)N2CCCc3ccccc32)cc1Br
 : -18.1%	3.5%	·	-6.3%	·	-21.8%	-38.1%	4.9%
> Cc1ccc(NC(=O)CSc2nc3c(c(=O)[nH]2)CCCC3)cc1C
 : -7.8%[46.1 µM]	13.1%	·	-1.1%	·	-11.5%	6.3%	-10.9%[46.1 µM]
> COc1cccc2c1OC[C@@H](CO)[C@H]2N(C)C(=O)Nc1ccc(Cl)cc1Cl
 : -30.0%	-29.3%	1.2%	-5.7%	?	-2.1%	5.1%	-23.7%
> O=C(Nc1nc2ccc(Oc3ccccc3)cc2s1)c1cc([N+](=O)[O-])ccc1N1CCOCC1
 : 3.0%	-3.3%	-17.6%	28.4%	15.8µM*	-13.5%	14.0%	?
> CC(=O)Oc1ccc(-c2ccc(C(=O)NCCc3ccc(S(N)(=O)=O)cc3)cc2)cc1
 : -10.0%[46.1 µM]	16.0%	·	2.0%	·	-15.1%	0.1%	?
> COc1ccccc1N(CC(=O)NCc1ccccc1)S(C)(=O)=O
 : -13.7%	9.4%	4.6%	0.5%	3.9%	-28.8%	-4.7%	-8.7%
> Cn1nccc1NC(=O)Nc1cccc(Cl)c1Cl
 : -28.2%	-7.3%	·	0.4%	·	-8.8%	0.7%	?
> CCOC(=O)CN1NC2(CCCCC2)NC1=S
 : -0.2%	2.6%	6.0%	21.2%	-7.9%	-15.4%	-0.2%	10.6%[46.1 µM]
> COCCn1c(SCC(=O)N2CC(=O)Nc3ccccc32)nc2ccccc2c1=O
 : ?	1.2%	·	3.1%	·	-14.1%	-8.9%	-6.9%

An excerpt from above, limited to LASV entry inh:
| mol | LASV entry inh |
| --- | --- |
| COc1ccccc1N(CC(=O)NCc1ccccc1)S(C)(=O)=O | -13.7% |
| Cn1nccc1NC(=O)Nc1cccc(Cl)c1Cl | -28.2% |
